Compound activity as filed in PubChem BioAssay.
UUG fidelity: modulators of start codon recognition fidelity in yeast | 350,000 tested, 0.13% active | S. cerevisiae UUG-firefly luciferase reporter, luminescence/redox ratio | activity score, % at 18.7 µM;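 active means replicate mean at a twofold rise or more, about +100% in these data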;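 further: firefly luciferase made from a UUG start codon reports start codon fidelity; reporter light over untreated wells divided by growth signal over untreated wells; some hits fall short of that in this replicate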
eIF4H FP inh: inhibitors of RNA binding by human eIF4H | inhibition, % at 35 µM | Q15056 | eIF4H fluorescence polarization binding assay | 290,000 tested, 0.94% active | AID 2012;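 active means 50% or more with normal probe brightness, or confirmed in later tests; inconclusive means above 50% with abnormal brightness, or retests that disagree; inactive means below 50% or failed in later tests; about a fifth of its hits are not listed in these tables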;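 further: calls also rest on retests at 20 µM and on dose response follow-up; 0% = protein and probe with vehicle and 100% = probe without protein; strong numbers were not always called active; many hits fall short of the cut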
CSC inhib: cancer stem cell inhibition. inhibition, % at 7.5 µM. 300,000 tested, 1.1% active. cancer stem cell-like cells viability, luminescence;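 active means mean at 75% or more and at least half the replicates too; inconclusive means mean and replicates disagree; tested in HMLE shEcad cells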;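 further: 0% = median of negative and 100% = median of positive control wells; the first replicate is given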
MT1-MMP act inh: inhibitors of human MT1-MMP activation | GFP/RFP ratio change, % at 20 µM | P50281 | 360,000 tested, 0.061% active | HT1080 RFP-PRO-GFP cells, GFP/RFP ratio fluorescence, overnight; percent of plate control window, DMSO zero;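 active means GFP/RFP ratio change of at least 30% with cell ATP level not reduced by more than half and red fluorescence within 50% of control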; further: strong numbers were not always called active
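Material – HT1080 RFP-PRO-GFP cells · Control set – DMSO wells and RFP-L50D-GFP cells · Incubation – overnight cell settling, then overnight compound exposure, 37 °C, 5% CO2 · Compound dosing – single-point 20 µM compound, 1% DMSO · Read-out – GFP/RFP fluorescence ratio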
Rce1 inh: blocks yeast Ras-converting enzyme | yeast membranes, quenched prenylated peptide cleavage fluorescence | AID 2563 | 290,000 tested, 0.27% active | calls only | Q03530;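 active means fall in fluorescence gain of 50% or more versus controls, with final raw signal at or below 3038400; inconclusive means same 50% fall but final raw signal above 3038400; inactive means fall in fluorescence gain under 50%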;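 further: plate controls were neutral control wells for no effect and wells lacking membranes for full effect; tested at 10 µM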
Target sequence (Q03530 whole entry, looked up): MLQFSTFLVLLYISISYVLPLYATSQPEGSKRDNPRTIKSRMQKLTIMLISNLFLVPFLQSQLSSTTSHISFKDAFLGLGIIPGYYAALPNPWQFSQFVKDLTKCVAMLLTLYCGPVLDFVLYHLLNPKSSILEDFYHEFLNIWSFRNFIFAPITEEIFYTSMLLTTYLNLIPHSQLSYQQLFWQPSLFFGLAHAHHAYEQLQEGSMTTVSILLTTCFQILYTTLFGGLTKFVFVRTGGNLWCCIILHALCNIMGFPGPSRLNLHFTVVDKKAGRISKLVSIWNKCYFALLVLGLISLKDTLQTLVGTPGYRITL
HIV Env fusion: HIV envelope-mediated fusion inhibition | HeLa-JRFL Env/CEM21 cell fusion, luciferase | inhibition, % at 12.3 µM | 360,000 tested, 1.1% active | AID 651610;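 active means mean replicate inhibition score of at least 50 and every replicate individually at or above 50; inconclusive means only one of the two criteria met; inactive means mean below 50 and not all replicates reaching 50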;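 further: 0% = plate neutral controls and 100% = maraviroc near 300 nM; one replicate is shown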
PABP polyA inh: blocks human PABP binding to poly(A) RNA; AID 2014; inhibition, % at 35 µM; 290,000 tested, 1% active; fluorescence polarization;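 active means 50% or more with normal probe brightness, or confirmed in later tests; inconclusive means above 50% with abnormal brightness, or retests that disagree; inactive means below 50% or failed in later tests; about a fifth of its hits are not listed in these tables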;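 further: calls also rest on retests at 20 µM and on dose response follow-up; controls were probe without protein and protein plus probe with vehicle; some compounds called inactive have numbers as strong as hits; many hits fall short of the cut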
eIF4H FP inh retest: further read-out of eIF4H FP inh, marked with its call; inhibition, %; compound at 20 µM; confirmation average;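 mean of two retest wells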
PABP polyA inh retest: also measured in PABP polyA inh; calls as there; inhibition, %; compound at 20 µM; confirmation repeats;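 mean of two retest wells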
MT1-MMP act inh RFP: recorded beside MT1-MMP act inh, whose call it bears; RFP signal change, %; measured here: RFP expression control read;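 0 = vehicle wells; hits needed this value within 50% of zero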
Starred values were filed as active, the others as inactive; i = inactive; ? = inconclusive; . = no result given. These rows are one share of the data (hit frequency here may not be typical).

SMILES	UUG fidelity	eIF4H FP inh	CSC inhib	MT1-MMP act inh	MT1-MMP act inh RFP	Rce1 inh	HIV Env fusion	PABP polyA inh	others
O=C(NCc1ccc2c(c1)OCO2)C1CC(c2ccccc2O)=NO1 (centres undefined)	-9	0	.	0	3	i	.	-7
COc1ccc(-c2ccc(-c3noc(-c4cccs4)n3)c(OC)n2)cc1	.	29*	-4	-1	4	i	.	50*	eIF4H FP inh retest=99*;PABP polyA inh retest=91*
O=C(N/N=C/c1ccc(Br)s1)c1c[nH]c2ccccc12	.	-6	41	0	-1	i	.	-5
O=C(CSc1nnc(Cc2ccccc2)o1)N1CCOCC1	-5	-2	16	1	3	i	.	31
O=c1[nH]c(C(F)(F)F)nc2ccccc12	-6	-11	4	-3	-2	i	.	3
CCOC(=O)c1c(-c2ccc(C)cc2)cn2ccccc12	-17	-2	34	3	2	?	.	-10
CC1=C(C(=O)OC(C)C)C(c2cn(-c3ccccc3)nc2-c2cccs2)NC(=O)N1 (centres undefined)	2	-4	-6	2	-6	i	15	5
C=CCN(c1ccccc1C(=O)O)S(=O)(=O)c1ccc(NC(=O)OC)cc1	-16	1	-13	-5	3	i	-11	-13
CCOc1ccc(/C(O)=C2/C(=O)C(=O)N(CCOCCO)C2c2ccccn2)cc1 (centres undefined)	-10	-2	-10	2	-1	i	-183	12
COc1ccc(CC(=O)OCC(=O)c2c(N)n(C)c(=O)n(C)c2=O)cc1OC	-17	.	4	-1	0	.	-6	.
OC(Cc1ccccc1)c1ncc(-c2ccc(Cl)cc2)[nH]1 (centres undefined)	-11	.	.	3	-4	.	-15	.
COc1ccc(-c2oc(=O)c3cc(OC)c(OC)cc3c2/C=C/c2cccc([N+](=O)[O-])c2)cc1	0	.	33	13	0	.	-21	.
CCCOCn1cc(F)c(=O)[nH]c1=O	-29	-5	.	4	5	i	-47	-6
Cc1ccccc1C(=O)NC(CC(C)C)C(=O)NCC(C)(C)N1CCOCC1 (centres undefined)	-20	.	-8	-1	4	.	6	.
O=C(CCc1c[nH]c2ccccc12)NCCc1ccc2c(c1)OCCO2	-11	2	1	-1	1	i	-23	1
O=C(CNC(=O)c1ccc(Cl)cc1Cl)NCC1CCCO1 (centres undefined)	-35	3	-16	2	3	.	9	2
O=S(=O)(NCc1csc(-c2cccnc2)n1)c1ccc2c(c1)OCCO2	-13	-6	-4	-1	-2	i	.	11
COc1ccc(N2CC(C)Cn3c2nc2c3c(=O)n(CCN3CCOCC3)c(=O)n2C)cc1 (centres undefined)	8	1	-12	5	6	i	.	39
Cn1c(=O)c2c(SCC(=O)N3CCCCC3)nc(-c3ccccc3F)nc2n(C)c1=O	-12	-5	1	0	-2	i	-7	7
Cc1cnc(C(=O)OCC(=O)NC2CCCCCC2)cn1	.	7	-10	-1	-5	i	-8	-17
FC(F)(F)c1nnc2ccc(NCc3cccnc3)nn12	-16	6	-4	-1	-2	i	9	-2
O=C(Nc1cc(-c2ccccc2)sc1C(=O)O)c1cccc(F)c1	-20	-12	32	5	2	i	-1	9
COc1ccc(C(C#N)N2CCCCCC2)cc1OC (centres undefined)	13	-11	11	-13	-2	i	.	-7
Cc1noc(C)c1CSc1nc2ccccc2[nH]1	-12	-10	-4	0	5	i	.	0
COc1ccc(C2CC(=O)C=C(NCc3ccc4c(c3)OCO4)C2)cc1 (centres undefined)	.	-4	-11	2	1	i	0	-2
Cc1ccc(S(=O)(=O)NCCC(=O)NC2CCCCCC2)cc1C	-3	.	-18	.	.	.	7	.
Cc1cc(=O)n(CNC(=O)c2ccccc2)c(=S)[nH]1	-13	-18	-16	.	.	i	.	-3
COc1ccc(Cn2c(O)cc(=O)[nH]c2=O)cc1	-8	?	-2	-9	5	i	.	5
CCOC(=O)c1sc(NC(=O)c2ccc3nc[nH]c3c2)nc1C	-28	-10	31	-3	-3	i	-23	-14
COc1ccc(NC(=O)CCCSc2nc(-c3ccco3)cc(C(F)(F)F)n2)cc1OC	.	-4	3	-10	-8	i	.	-9
CC(=O)N1c2ccc(S(=O)(=O)N3CCCC(C(=O)Nc4ccc(F)cc4)C3)cc2CC1C (centres undefined)	2	-3	18	-7	-28	i	41	2
CCOC(=O)c1cc(C)nc(N2CCCCC2)c1C#N	.	1	-5	-4	1	i	-1	8
Cc1ccc(OCC(=O)NCc2n[nH]c(=O)c3ccccc23)cc1	-17	.	.	0	0	i	6	.
CCn1c(Cn2nnc(-c3ccccc3)n2)nnc1SCC(=O)Nc1ccccc1	-22	-7	-11	3	-3	i	.	4
O=C(CCCN1C(=O)C2CCCCN2C1=O)N1CCN(c2ccc([N+](=O)[O-])cc2)CC1 (centres undefined)	-11	-10	-5	-2	-8	i	.	-3
CCN(CC)c1ccc(NC(=O)C(C)C)cc1	-15	-10	-9	-3	2	i	-38	-5
CCCCCN(C(=O)CCC(=O)OC(C)C(=O)Nc1cccc(C#N)c1)c1c(N)n(CCCC)c(=O)[nH]c1=O (centres undefined)	-5	.	0	-2	-1	i	.	.
CCC(C)NC(=O)c1c(N)n(/N=C/c2cccnc2)c2nc3ccccc3nc12 (centres undefined)	-6	-11	49	-2	-1	i	-119	-7
CCCNC(=O)C(Cc1cccc(C#N)c1)NC(=O)c1cccc([N+](=O)[O-])c1 (centres undefined)	20	.	-3	-2	2	.	34	.
O=C(NCCOc1ccccc1)C(=O)c1c[nH]c2ccccc12	18	7	2	-4	3	i	-17	0
Cc1ccc(Cn2ccc(NC(=O)c3cc(C)on3)n2)cc1	.	-13	.	1	0	i	-63	5
N#C/C(=C\c1cccc(Cl)c1)C(=O)c1ccccc1	-21	-6	1	0	3	i	-14	7
CC(=O)N=c1sccn1CC(=O)c1ccc([N+](=O)[O-])cc1	.	-1	-8	2	2	i	-26	-4
O=C(C1=C[C@@H](c2csc3ccccc23)C[C@@H](OCc2ccc(CO)cc2)O1)N1CCN(Cc2ccccc2)CC1	2	15	0	-3	-10	i	.	-5
CCOC(=O)c1c(C)n(CC(COC(C)=O)OC(C)=O)c2ccc(OC(C)=O)cc12 (centres undefined)	-12	3	2	6	2	i	-82	-5
Fc1ccc(CN2CCCN(C(=S)Nc3ccc(F)cc3)CC2)cc1	-11	15	-3	5	1	i	26	0
COc1ccc(CC(N)c2csc(NC(=O)Nc3ccccc3Cc3ccccc3)n2)cc1 (centres undefined)	-6	.	.	-4	-4	.	98*	.
COc1ccc(O)c(C(=O)CC(=O)c2ccncc2)c1	-28	.	.	-2	0	.	17	.
Cc1cc(C)c(NC(=S)N(CCN(C)C)Cc2cccs2)c(C)c1	-10	1	-9	-6	-2	i	11	10
COc1ccc(C(=O)N2CCN(C(=O)CC(C)C)CC2)cc1OC	-16	-2	-7	3	3	i	.	10
O=C(CCN1C(=O)C2CC=CCC2C1=O)Nc1nc(-c2ccc(F)c(F)c2)cs1 (centres undefined)	.	.	-3	3	4	.	0	.
COc1ccc(-c2noc(=O)n2Cc2ccccc2F)cc1	5	-9	-14	-3	-5	i	0	10
COc1ccc(C(=O)NC(Cc2c[nH]c3ccccc23)C(=O)O)cc1 (centres undefined)	-5	-1	-5	-4	0	i	-1	-3
Cc1ccc(S(=O)(=O)N2CCN(C(=O)C(F)(F)F)C2c2ccc(N(C)C)cc2)cc1 (centres undefined)	-19	-6	.	-3	-1	i	3	-3
Clc1ccc(CN2C3=NCCCN3c3ccccc32)cc1	-12	-6	4	-5	3	i	.	-3
O=C(COC(=O)c1ccc(O)cc1)c1ccc(S(=O)(=O)N2CCCCC2)cc1	-3	.	-6	-4	-5	.	.	.
Cc1cc(C)nc(S/C=C/C(=O)c2ccccc2)n1	.	-7	49	22	5	i	-169	6
Cc1oc2c(C)c3oc(=O)c4c(c3cc2c1C)CCCC4	-6	5	19	-2	0	i	.	1
COc1ccc(CCNC(=O)CC(Cc2ccc(C)cc2)C(=O)O)cc1OC (centres undefined)	-2	-1	-18	0	1	i	-3	-4
COCCN1CCN(C(=O)c2cc(COc3ccc(F)cc3Cl)on2)CC1	7	4	-7	2	3	i	-7	-13
(more compounds)
SMILES	UUG fidelity	eIF4H FP inh	CSC inhib	MT1-MMP act inh	MT1-MMP act inh RFP	Rce1 inh	HIV Env fusion	PABP polyA inh	others
COC(=O)Cc1ccc(NC(=S)NCc2ccc(S(N)(=O)=O)cc2)cc1	-9	5	-3	2	3	i	22	-3
Cc1ccc(CSc2nnc(SCC(=O)N/N=C/c3c(C)nn(-c4ccccc4)c3C)s2)cc1	-3	-6	19	2	1	i	-16	-9
CN1C(=O)c2oc3ccccc3c(=O)c2C1c1ccccn1 (centres undefined)	-9	7	-20	0	0	i	.	-4
Cn1c(CNC(=O)CNC(=O)c2ccc(C(C)(C)C)cc2)cc(=O)n(C)c1=O	-5	-12	-15	0	1	i	-9	-1
CCn1c(N2CCN(C(=S)NCC(C)C)CC2)nc2ccccc21	-1	-2	-3	5	0	i	.	-3
COc1ccccc1NC(=O)CCC(=O)Nc1cc(OC)c(NC(=O)c2cccs2)cc1OC	.	-16	-5	1	2	i	13	26
COc1ccc(OCC(O)CNC(=O)c2c(-c3ccccc3)noc2C)cc1 (centres undefined)	-9	-6	-18	-1	-2	i	-2	-6
COC(=O)c1cn(CC(=O)Nc2ccccc2C)c2ccccc12	2	-2	-13	5	0	i	4	6
Fc1ccc(Br)cc1C1C=C(c2cccnc2)Nc2ncnn21 (centres undefined)	-22	5	23	-25	-7	i	.	14
Cc1nnc(SCc2nnc(-c3ccccc3)o2)n(N)c1=O	-11	-2	6	-3	0	i	.	-12
Cn1c(SCC(=O)NC2CCCC2)nnc1-c1ccc(S(=O)(=O)N2CCOCC2)cc1	-16	0	-4	-2	0	i	-20	9
O=C1CCN(S(=O)(=O)c2cc(C(F)(F)F)ccc2Cl)CC1	-17	.	-9	3	3	.	.	.
CCCN=Cc1c(CCC)[nH]n(-c2nc3ccccc3s2)c1=O	-21	0	-14	4	2	i	.	-5
Cn1c(=O)c2cc(NC(=S)NC3CC3)ccc2n1C/C=C/c1ccccc1	-15	.	.	0	3	.	11	.
CCc1cccc(Nc2c([N+](=O)[O-])cc(C(=O)N3CC(=O)Nc4ccccc43)cc2[N+](=O)[O-])c1	.	-4	.	-1	-13	i	17	2
CCC(=O)Nc1nnc(-c2cccs2)s1	.	2	-1	-2	0	i	-28	-4
CCOc1ccc(CSC(=N)N)cc1	.	-3	-4	1	1	i	1	0
CCC(=O)N1CCCC(C)(C(=O)Nc2ccc(OC)c(F)c2)C1 (centres undefined)	0	.	.	2	3	.	2	.
Cc1ccc(N=C2NC(=O)/C(=C/c3cccnc3)S2)cc1C	-13	-3	-1	-3	-2	i	-4	-13

Random excerpt: 2 entries already listed.
SMILES	UUG fidelity	eIF4H FP inh	CSC inhib	MT1-MMP act inh	MT1-MMP act inh RFP	Rce1 inh	HIV Env fusion	PABP polyA inh	others
CN1C(=O)c2oc3ccccc3c(=O)c2C1c1ccccn1 (centres undefined)	-9	7	-20	0	0	i	.	-4
Cc1nnc(SCc2nnc(-c3ccccc3)o2)n(N)c1=O	-11	-2	6	-3	0	i	.	-12

Gathered by group, the entries above containing bromine.
SMILES	UUG fidelity	eIF4H FP inh	CSC inhib	MT1-MMP act inh	MT1-MMP act inh RFP	Rce1 inh	HIV Env fusion	PABP polyA inh	others
O=C(N/N=C/c1ccc(Br)s1)c1c[nH]c2ccccc12	.	-6	41	0	-1	i	.	-5
Fc1ccc(Br)cc1C1C=C(c2cccnc2)Nc2ncnn21 (centres undefined)	-22	5	23	-25	-7	i	.	14
